Sa ugtP lethal – growth inhibition of ugtP-null S. aureus, primary screen, RN4220 ugtP deletion, OD600 | 16 h; some inactives read as strong as hits | growth inhibition, % (test concentration not listed) | 330,000 tested, 0.54% active | AID 1259309, 2017;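 active = z-score under -3 and OD600 up to 0.15 on both plates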;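 also: plate controls were untreated wells for no effect and antibiotic for full effect; wells of about 80 µL received 100 nL stock; the first replicate is given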
PrP 5UTR inh – inhibition of PrP 5' UTR reporter expression | cell-based PrP 5' UTR mRNA reporter, plate reader | inhibition, % (test concentration not listed) | 340,000 tested, 0.35% active | AID 488862, 2010;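 active = every replicate at 50% or more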;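 also: 0 = median of the neutral control wells; tested in H4 reporter cells; numbers are from one replicate; inactives centre near -14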
Mtb hypoxia rep – PubChem AID 1159583; M. tuberculosis hypoxia-regulated fluorescent reporter, fluorescence; fluorescence inhibition, % (test concentration not listed); 300,000 tested, 0.1% active;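 active = 35 to 45% if threefold the growth effect, above 45% if 1.5-fold the growth effect; inactive = the rest, general growth blockers included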;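 also: wells of about 50 µL received 100 nL stock; 0% = vehicle wells and 100% = reference inhibitor wells; whole bacteria with a GFP reporter of the hypoxia response; strong numbers were not always called active; many hits fall short of the cut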
Bead autofluor – counter-screen for toxin protease inhibitors: compound fluorescence. fluorescence intensity (concentration not given with the values). compound autofluorescence counterscreen, microsphere flow cytometry; stronger effect = higher value. 360,000 tested, 3.1% active;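 active = at least 3 SD above the mean of all compounds, about 16000 in these data; inconclusive = too few beads counted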;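 also: 100 nL of 1 mM stock went into each well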
RN4220 kill – growth inhibition of S. aureus RN4220, primary screen, OD600; 16 h; inhibition, % (concentration not given with the values); 330,000 tested, 0.33% active;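 active = z-score of -3 or lower and OD600 up to 0.18 on both plates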;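 also: plate controls were untreated cells for no effect and reference antibiotic for full effect; stock transfer was 100 nL into about 80 µL; one replicate is shown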
BJeLR viability – MLPCN primary cell-based screen for lethality selective to Ras in HRASV12 cells | BJeLR (HRASV12) viability, CellTiter-Glo ATP luminescence, 48 h; reference of the scale not given here | 300,000 tested, 0.17% active | inhibition, % (test concentration not listed);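 active = replicate mean above 50%; inconclusive = above 50% but judged a plate artefact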;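 also: 50 nL library stock added to about 25 µL; numbers are from one replicate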
Mtb hypoxia rep growth – second read-out of Mtb hypoxia rep, no call of its own (marks repeat the call); growth inhibition, %; measured here: M. tuberculosis growth (absorbance);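 0% = vehicle and 100% = reference antibiotic; read after six days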
The depositor's hits bear a star; ? = inconclusive; · = not tested or not shown.

SMILES	Sa ugtP lethal	PrP 5UTR inh	Mtb hypoxia rep	Mtb hypoxia rep growth	Bead autofluor	RN4220 kill	BJeLR viability
CCOC(=O)Cc1nnc(NC(=O)c2ncn[nH]2)s1	-9	1	10	8	23312*	3.0	-1
CN(C(=O)CCc1nnc(CCCCc2ccccc2)o1)C1CC(C)(C)NC(C)(C)C1	12	-29	13	-2	4347	8.9	·
Cc1ccc(N2NC(=O)/C(=C\c3cc4c(cc3[N+](=O)[O-])OCO4)C2=O)cc1C	10	-55	11	6	2428	-1.2	1
CCCC(CCC)c1nnc(NC(=O)c2ccco2)s1	0	9	9	10	3713	4.1	2
O=C(Nc1ccc2c(c1)OCO2)C1CC(c2ccccc2Cl)=NO1 (centres undefined)	0	-33	9	10	5780	1.7	-3
C=CCOC(=O)COc1ccc2c(C)c(C)c(=O)oc2c1	5	-12	-2	5	?	1.0	-8
CC(Oc1ccccc1)C(=O)N1CCCc2ccccc21 (centres undefined)	-1	-13	1	9	?	2.4	·
CCCCN(C(=O)C1CC1)C1CCS(=O)(=O)C1 (centres undefined)	2	-16	9	0	5749	3.0	-5
CCCc1cc(=O)oc2c(C)c(OCC(=O)N3CCC(C(=O)O)CC3)ccc12	3	-2	·	·	4274	0.4	1
O=C(COC(=O)CN1C(=O)COc2ccccc21)NC1CCCCC1	4	3	-2	2	5469	0.9	5
CC(=O)Nc1ccc(-c2cc(-c3ccccc3)nc(-c3ccccc3)n2)cc1	5	-11	7	5	2039	1.3	2
O=C(O)c1cc(-c2cc(C(=O)O)c3ccccc3n2)ccc1O	6	12	11	2	2965	1.0	·
CC1CC(C)CN(c2ccc(S(=O)(=O)N3CCOCC3)cc2)C1 (centres undefined)	4	-8	10	6	6642	1.3	-15
Cc1ccc2c(C)c(C(=O)N(C)Cc3ccncn3)oc2c1C	1	-15	13	13	5730	1.9	-5
NNC(=O)CC(=O)NC1(Cc2ccc(O)cc2)CCCCC1	1	-7	-1	8	4219	1.8	-3
O=C(COc1ccc(Cl)cc1[N+](=O)[O-])N1CCCCC1	0	-14	18	13	4202	6.1	2
c1ccc(C[n+]2ccccc2)cc1	-1	-14	9	5	3312	8.8	-1
N=c1c(C(=O)NCc2ccccc2)cc2c(=O)n3ccccc3nc2n1Cc1ccco1	0	-7	-1	4	5120	2.0	0
Cc1ccc(-n2ncc3c(=O)n(CC(=O)N4CCCCCC4)cnc32)cc1	-3	-17	16	6	·	-9.9	2
Cn1c2ccccc2c2c(C(=O)N3CCN(c4ccc(F)cc4)CC3)cn(C3CCCC3)c(=O)c21	0	-28	·	·	4331	-8.3	6
CN(C)CCCO/N=C(\c1ccccc1)c1ccncc1	·	-20	·	·	3617	·	6
COc1ccc(CNC(=O)NC2CCCCC2)cc1	3	5	16	16	?	2.1	1
COc1ccc(C2=NCN(c3ccc(C)cc3)C(=S)N2)cc1	33	-57	5	13	2881	4.7	-6
O=C(O)/C=C\C(=O)Nc1ccc(Oc2ccc(Br)cc2)cc1	5	-2	4	1	4596	7.2	5
CCOc1ccc(C(=O)NCC(=O)OC(C)C(=O)NCc2ccco2)cc1OCC (centres undefined)	-4	-8	0	-2	2454	-3.7	1
CCOCCCn1c(=NC(=O)c2ccco2)c(C(=O)OCC)cc2c(=O)n3cccc(C)c3nc21	5	-16	13	5	4888	5.3	-3
Cc1ccc(C)c(-n2cc(CN3CCCN(C=O)CC3)c(-c3ccccc3)n2)c1	1	-11	3	4	3269	2.3	9
S=c1[nH]c(-c2ccccc2)cn1-c1ccccc1	7	-27	-2	4	3737	6.4	1
Cc1nc2scc(-c3cccs3)c2c(=O)o1	-7	-23	7	2	3199	4.1	-7
O=C(CC(C(=O)O)C1CCCO1)NCCc1ccc2c(c1)OCO2 (centres undefined)	3	-16	4	-1	5791	1.6	-4
C=C1SC(=Nc2ccccc2Cl)N(C(=O)c2sc3ccccc3c2Cl)C1(C)C	·	-33	·	·	4488	·	-4
COc1ccc(CNC(=O)C2CCN(S(=O)(=O)c3ccc4c(c3)CC(C)N4C(C)=O)CC2)cc1 (centres undefined)	8	-8	6	4	5431	0.9	-4
O=C(CCC(=O)Nc1ccccc1Cl)NNS(=O)(=O)c1ccc(Cl)cc1	1	-13	2	4	5052	0.9	·
Cc1n[nH]c(=S)n1N=Cc1ccc(-c2ccc(Cl)cc2)o1	-4	·	0	4	·	4.8	·
CCCOC(=O)/C(C)=N\NC(=O)c1ccco1	·	-13	·	·	2862	·	-11
COc1ccc(N2C(=O)c3ccccc3NC2c2ccc(OC)c(Cn3cc([N+](=O)[O-])cn3)c2)cc1 (centres undefined)	5	-25	-4	-11	3604	1.9	5
CCCCN(C)C(=O)CCCc1c[nH]c2ccccc12	1	-11	6	7	3280	6.9	6
CCN(CC)C(=O)CSc1nc2cc3c(cc2c(=O)n1CCCC(=O)NCCc1ccc(OC)c(OC)c1)OCO3	1	-13	5	2	3358	-0.7	-3
Cc1ccc2cc3c(NC(=O)c4ccco4)nn(CC(C)C)c3nc2c1	-6	8	-11	-9	2792	6.9	-14
CCOC(=O)N1CCN(C(=O)c2cn(CC)c3ccc(S(=O)(=O)N4CCCCC4)cc3c2=O)CC1	12	-7	15	1	3992	6.0	1
CSc1cccc(N=C2C(=O)Nc3ccccc32)c1	6	-12	3	-6	4102	2.9	8
CCc1ccc(C(=O)COC(=O)c2cccs2)cc1	·	-153	·	·	3109	·	0
CC(C)n1c(O)c(N=NC(=O)C2COc3ccccc3O2)c2ccccc21 (centres undefined)	-8	-16	3	-16	2557	3.3	-4
Cc1ccc(Cl)c(OCC(=O)Nc2ccc3c(c2)OCCO3)c1	-2	-81	-1	3	10801	17	14
O=C(CN1C(=O)NC2(CCCC2)C1=O)NCc1cccc(Cl)c1	-4	-19	12	-1	3772	-0.5	·
O=C(CNC(=O)/C=C/c1ccccc1)N=Nc1c(O)n(Cc2ccccc2)c2ccccc12	-17	·	-1	1	·	6.9	-2
Cc1c(N=Cc2cc3c(cc2[N+](=O)[O-])OCO3)cccc1[N+](=O)[O-]	6	-59	-2	-1	6251	2.6	6
CC(C)CC(NC(=O)C(NC(=O)C1CCC(=O)N1C(=O)OCc1ccccc1)C(C)C)C(=O)N1CCCC1C(N)=O (centres undefined)	14	-17	3	8	3741	-0.9	-6
COc1ccccc1CNC(=O)COC(=O)c1cc2ccccc2o1	-9	-64	-8	-2	3659	0.7	·
COC(=O)C1=NN(c2ccccc2OC)C2C(=O)N(c3ccccc3OC)C(=O)C12 (centres undefined)	8	-24	14	2	1970	6.7	4
Cc1ccc(-n2c(C)nnc2SC(C)C(=O)N2CCCC2)cc1 (centres undefined)	4	4	-3	8	4487	0.6	4
Cc1c(C)[n+](=O)c2c(n1[O-])CCCCC2	9	-28	·	·	4052	1.5	-2
COc1ccccc1-n1cnc2cc(NC(C)=O)ccc21	3	-22	13	14	2372	5.6	0
CCCCCCCCCCS(=O)(=O)NN=Cc1ccccc1OC	97*	·	7	1	·	4.1	·
COc1cc(NC(=O)CCc2nnc3ccc(N4CCN(C)CC4)nn23)cc(OC)c1	10	-17	3	3	5050	1.1	8
COc1cccc2c1OC1(CCN(C(C)C)CC1)N1N=C(c3cccnc3)CC21 (centres undefined)	-4	-27	5	12	3521	2.4	4
O=C(Nc1cc(Cl)ccc1Oc1ccccc1)c1ccccc1F	32	-7	6	14	2791	-8.3	0
CC(C)C/C(=N/O)c1c[nH]c2ccccc12	·	-11	·	·	3005	·	1
COc1cc(S(=O)(=O)n2cnc(C)c2)ccc1Cl	-7	-17	-10	-5	4753	4.9	3
COc1ccc(C(=O)C[n+]2cccc(C(N)=O)c2)cc1	6	-3	10	5	3967	0.7	2

More compounds follow:
SMILES	Sa ugtP lethal	PrP 5UTR inh	Mtb hypoxia rep	Mtb hypoxia rep growth	Bead autofluor	RN4220 kill	BJeLR viability
Clc1ccc(Nc2nc3ccccc3n3nnnc23)cc1	-12	-28	10	6	20275*	0.8	19
Cc1ccccc1NC(=O)C1c2ccccc2Oc2ccccc21	0	-11	8	-13	2547	3.0	0
Cc1cc(NC(=O)CCC(=O)N(CCc2ccccc2)C(C(=O)NC2CCCC2)c2ccco2)no1 (centres undefined)	0	-12	·	·	3500	-2.1	-4
Cc1ccc(OCC(=O)N2CCN(S(=O)(=O)c3ccccc3[N+](=O)[O-])CC2)cc1	0	-27	10	1	4840	5.4	3
Oc1[nH]c2ccccc2c1/C=N/N1CCCCC1	·	-5	·	·	2648	·	0
O=C1CCCC(=NNC(=O)c2ccc(NS(=O)(=O)c3cccs3)cc2)C1	2	·	2	-4	·	3.5	·
CCCC(=O)Nc1nnc(SCC(=O)Nc2ccc3c(c2)OCCO3)s1	1	-21	2	0	7250	-1.8	0
CC(=O)N/C(=C\c1ccc(F)cc1)C(=O)OCc1ccccc1	-8	-22	-5	-1	3153	-2.9	6
Cc1ccc(S(=O)(=O)NCc2ccc(C(=O)NC3CCC(O)CC3)cc2)cc1C (centres undefined)	3	-4	-6	-5	3000	-0.3	·
COc1ccc(NC2C=CS(=O)(=O)C2)cc1 (centres undefined)	-4	-20	-1	12	9378	1.3	5
N#CC(=NNc1ccc(S(=O)(=O)N2CCOCC2)cc1)C(N)=S	-3	·	10	-1	·	7.0	·
CNC(=O)c1[nH]cnc1C(=O)Nc1ccc(F)cc1	0	-31	-4	0	2961	2.3	-8
CCn1c(=O)c(-c2nc3ccccc3[nH]2)c(O)c2ccccc21	2	·	6	9	·	8.4	1
CCOC(=O)NC(=O)/C(C#N)=C\Nc1ccc(Cl)cc1Cl	5	-26	11	1	3173	2.8	8
CN(C)S(=O)(=O)N(CC(=O)NCCSCc1ccccc1)c1ccccc1	-5	-14	-3	7	2794	1.0	6
NS(=O)(=O)c1ccc(CCNC(=O)CCCCCn2c(=S)[nH]c3ccc(Br)cc3c2=O)cc1	-15	51	-6	18	3211	-0.3	1
C/C=C/CSc1nc2c(c(=O)[nH]c(=O)n2C)n1CCC	0	-17	·	·	5168	-1.0	·
CCc1ccc(NC(=O)CSC2=C(C#N)C(c3ccc4c(c3)OCO4)CC(=O)N2)cc1 (centres undefined)	5	-20	5	12	9177	5.2	1
COC(=O)c1ccc2c(=O)n(Cc3ccc(C(=O)NC(C)C)cc3)c(=S)[nH]c2c1	0	-68	8	6	4338	7.9	0
Cc1cccc(C)c1N(CC(=O)NC1CCCCC1)C(=O)c1csnn1	9	-15	9	9	3588	3.8	-7
CCC(=O)N(Cc1ccc(S(N)(=O)=O)cc1)C1CC(=O)N(c2ccccc2)C1=O (centres undefined)	9	-13	5	14	4498	5.5	5
CCOc1cc(S(=O)(=O)NC2CC2)c(OCC)cc1-n1cnnn1	-2	-19	2	5	9872	3.6	-2
CCn1c(=O)c(=O)[nH]c2c(=O)oc3ccc(S(=O)(=O)Nc4ccccc4)cc3c21	8	-11	-7	7	5027	2.4	4
COCCCn1c(SCC(=O)O)nc2cc(OC)c(OC)cc2c1=N	5	-24	12	7	5217	5.6	5
CC(C)(O)/C=C1/Oc2ccccc2C1N1CCCCC1 (centres undefined)	-5	-10	15	10	2570	-8.7	-8
CCc1ccccc1NC(=O)c1cccc(NC(=O)/C=C/c2ccco2)c1	·	-9	·	·	8826	·	-5
CC(=O)Nc1sc2c(c1C#N)CCN(Cc1ccccc1)C2	1	-21	13	9	5960	-10.0	-11

5 compounds from above, ordered by number of heavy atoms, rising:
SMILES	Sa ugtP lethal	PrP 5UTR inh	Mtb hypoxia rep	Mtb hypoxia rep growth	Bead autofluor	RN4220 kill	BJeLR viability
CCOC(=O)NC(=O)/C(C#N)=C\Nc1ccc(Cl)cc1Cl	5	-26	11	1	3173	2.8	8
Cc1cccc(C)c1N(CC(=O)NC1CCCCC1)C(=O)c1csnn1	9	-15	9	9	3588	3.8	-7
CC(C)n1c(O)c(N=NC(=O)C2COc3ccccc3O2)c2ccccc21 (centres undefined)	-8	-16	3	-16	2557	3.3	-4
CN(C(=O)CCc1nnc(CCCCc2ccccc2)o1)C1CC(C)(C)NC(C)(C)C1	12	-29	13	-2	4347	8.9	·
CCOC(=O)N1CCN(C(=O)c2cn(CC)c3ccc(S(=O)(=O)N4CCCCC4)cc3c2=O)CC1	12	-7	15	1	3992	6.0	1

Screening data: PubChem BioAssay, several laboratories
